From PubChem BioAssay
INS promoter inh = TRM-6 insulin promoter activity inhibition; TRM-6 cells (human fetal islet line), insulin promoter-eGFP reporter, imaging; reporter expression induced with tamoxifen; inhibition, % at 2 µM; 130,000 tested, 0.9% active; AID 1273;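 active means inhibition above the mean plus 3 SD, with well images judged a real hit on visual review, cut at about 60% in these data, passing the limit was not always enough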
GALR2 agonist = activates the human galanin receptor 2; AID 803; 140,000 tested, 0.48% active; activation, %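 (tested at 5 µM)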; GALR2-expressing cells, agonist activation read-out; O43603;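 active means above mean plus 3 SD of all compounds, about 5% in these data, not always enough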;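 further: 0% = vehicle buffer wells and 100% = reference agonist at full effect; tested in CHO reporter cells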
Target sequence (O43603 whole entry, looked up): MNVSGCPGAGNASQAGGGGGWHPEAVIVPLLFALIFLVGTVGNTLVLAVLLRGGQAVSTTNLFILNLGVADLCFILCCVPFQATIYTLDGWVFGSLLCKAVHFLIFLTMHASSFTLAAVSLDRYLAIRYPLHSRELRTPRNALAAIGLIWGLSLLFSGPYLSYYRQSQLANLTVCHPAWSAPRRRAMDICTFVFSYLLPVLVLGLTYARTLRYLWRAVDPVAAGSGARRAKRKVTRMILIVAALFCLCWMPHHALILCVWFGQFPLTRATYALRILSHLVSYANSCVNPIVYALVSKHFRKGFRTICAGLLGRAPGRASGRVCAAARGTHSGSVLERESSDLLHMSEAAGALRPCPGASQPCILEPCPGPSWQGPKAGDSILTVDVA
HSV replic up = HSV replication enhancement; maximum fold increase; HSV replication augmentation in cells, fold increase; 220,000 tested, 0.005% active;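 active means peak rise of 1.5-fold or more in the series; tested in PC3 cells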;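 further: first round at 10 µM; read as green reporter fluorescence; hits show the peak of a series up to 25 µM; 1 = signal of infected wells without compound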
PKD1 inh = inhibitors of human PKD1 kinase; PKD1 kinase fluorescence polarization assay; inhibition, %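 (about 10 µM by stock and volumes)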; 200,000 tested, 0.056% active;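 active means inhibition of 50% or more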;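 further: controls were vehicle for no effect and a reference inhibitor for full effect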
RGS16-Gao HTS = regulators of human RGS16-Galphao interaction | 220,000 tested, 0.38% active | bead-based flow cytometry RGS16-Galphao binding, fluorescence; actives lie on both sides | binding response (% of control), % at 10 µM | AID 1441;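 active means below 25% or above 175%, edge rows of some plates excepted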;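 further: Galphao activated by GDP with aluminum fluoride before binding; 100% = wells without compound and 0% = beads without RGS; some results beyond the cut were filed as inactive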
Target sequence (O15492 whole entry, looked up): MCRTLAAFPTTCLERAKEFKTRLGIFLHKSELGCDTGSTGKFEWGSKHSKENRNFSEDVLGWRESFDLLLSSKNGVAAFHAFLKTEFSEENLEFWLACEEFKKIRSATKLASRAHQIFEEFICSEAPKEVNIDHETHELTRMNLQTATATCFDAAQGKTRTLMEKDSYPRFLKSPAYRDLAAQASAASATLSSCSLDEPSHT
Target sequence (P09471 whole entry, looked up): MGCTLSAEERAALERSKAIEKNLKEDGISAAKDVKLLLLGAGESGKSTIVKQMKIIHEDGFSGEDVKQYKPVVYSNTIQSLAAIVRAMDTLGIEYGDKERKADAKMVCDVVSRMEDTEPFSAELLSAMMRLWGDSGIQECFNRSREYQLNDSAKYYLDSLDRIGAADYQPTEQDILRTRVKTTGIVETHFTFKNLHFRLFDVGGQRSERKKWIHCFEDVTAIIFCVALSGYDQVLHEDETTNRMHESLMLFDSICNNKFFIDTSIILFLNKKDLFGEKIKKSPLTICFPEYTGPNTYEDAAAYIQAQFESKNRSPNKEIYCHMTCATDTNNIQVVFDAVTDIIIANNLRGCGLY
INS promoter inh cell count = recorded beside INS promoter inh, whose call it bears; normalized cell count, %; measured here: cell count, toxicity; reference of the scale not given here;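 cells exposed to compound for 48 h; stained nuclei by imaging scaled within each plate; lower means fewer cells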
HSV replic up primary fold = recorded beside HSV replic up, whose call it bears; fold increase; compound at 10 µM; measured here: primary screen fold increase 10 uM; tested in PC3 cells;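 GFP signal in the first replicate; 1 = infected wells without compound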
The depositor's hits bear a star; i = inactive; / = not tested or not shown. An unsorted share of the library; any-hit rate near 1.3%.

No.	molecule	INS promoter inh	INS promoter inh cell count	GALR2 agonist	HSV replic up
1	CCCC(c1nnnn1CC1CCCO1)N1CCN(c2cc(Cl)ccc2C)CC1 (configuration not stated)	/	/	-0.8	i
2	COc1ccc(/C=c2\s/c(=C(/C#N)C(=O)NCc3ccco3)n(-c3ccccc3)c2=O)cc1	32.0	50.4	-0.8	i
3	CC1=CCC2(CO)COC(c3ccccc3O)C1C2 (configuration not stated)	-15.6	36.2	-0.1	i
4	COc1ccc(-c2cc(C(F)(F)F)n3nc(C)cc3n2)cc1	/	/	-0.7	i
5	CCOC(=O)C1=C(NC(=O)c2ccc(Br)o2)Nc2ccccc2N=C1	/	/	-1.9	i
6	CCOC(=O)C1=C(C)NC(=O)NC1c1c(C)nn(-c2ccccc2)c1Cl (configuration not stated)	/	/	-1.4	i
7	CN(C)c1ccc(/C=C(\C#N)C(=O)NCc2ccco2)cc1	-20.0	135.5	2.2	i
8	CCCCNc1nc2c(c(=O)[nH]c(=O)n2C)n1CCOc1ccccc1	42.4	82.9	0.4	i
9	Cc1nn(C)cc1CN(C)C(=O)c1sc2cccc(Cl)c2c1Cl	32.3	82.7	-1.5	i
10	Cc1cccc(N2C(=S)NC3c4ccccc4OC2(C)C3C(=O)N(C)C)c1 (configuration not stated)	35.7	72.5	/	i
11	Nc1nc2n(n1)C(c1c(F)cccc1Cl)CC(c1ccc(F)cc1)N2 (configuration not stated)	/	/	-1.2	i
12	O=C(NNC(=O)c1ccccc1-c1ccccc1C(=O)O)c1ccccc1	/	/	/	i

No.	HSV replic up primary fold	PKD1 inh	RGS16-Gao HTS
1	1.06	-0.4	110.9
2	0.94	-13.0	49.9
3	0.67	-3.8	91.5
4	0.9	-4.6	102.5
5	0.9	0.1	121.5
6	0.987	-6.6	89.8
7	1.2	-4.0	104.3
8	1.15	-12.2	101.1
9	0.92	17.6	90.0
10	0.86	-7.4	104.0
11	1.2	-15.5	116.7
12	1.04	1.0	82.5

The last four records of the section above come first, to join the parts.
No.	molecule	INS promoter inh	INS promoter inh cell count	GALR2 agonist	HSV replic up
9	Cc1nn(C)cc1CN(C)C(=O)c1sc2cccc(Cl)c2c1Cl	32.3	82.7	-1.5	i
10	Cc1cccc(N2C(=S)NC3c4ccccc4OC2(C)C3C(=O)N(C)C)c1 (configuration not stated)	35.7	72.5	/	i
11	Nc1nc2n(n1)C(c1c(F)cccc1Cl)CC(c1ccc(F)cc1)N2 (configuration not stated)	/	/	-1.2	i
12	O=C(NNC(=O)c1ccccc1-c1ccccc1C(=O)O)c1ccccc1	/	/	/	i
13	CN(C(=O)COc1ccccc1)C1CCS(=O)(=O)C1 (configuration not stated)	/	/	/	i
14	Cc1ccc(C(=O)N/N=C\C=C\c2ccc(Br)cc2)cn1	-15.0	116.7	/	i
15	N#Cc1c(N)sc2c1CCN(C(=O)OCc1ccccc1)C2	/	/	-1.2	i
16	CCOC(=O)c1c(C)[nH]c(C)c1C(=O)COC(=O)CNC(=O)c1ccc(OCC)cc1	0.0	115.9	-0.2	i
17	NS(=O)(=O)c1ccc(CNC(=O)Cc2c(F)cccc2Cl)cc1	25.6	116.8	/	i
18	CCOC(=O)COc1ccc2c(c1)C(=O)CC(C)(c1cccnc1)O2 (configuration not stated)	/	/	-1.4	i
19	O=C(O)CCCCCNc1ccc2nsnc2c1[N+](=O)[O-]	/	/	1.6	i
20	COc1cc(NC(=O)c2cccc(Cl)c2)ccc1NC(=O)c1cccs1	33.3	143.4	/	i
21	CNc1nc(C)c(C(=O)c2ccc(Cl)cc2)s1	-28.6	58.7	-2.3	i
22	COc1ccc(/C(C)=N/NC(=O)C2C3CCCCC32)c(OC)c1 (configuration not stated)	-66.7	82.4	-0.8	i
23	CC(C)(C)c1nc(Sc2ncccc2[N+](=O)[O-])n[nH]1	/	/	/	i
24	Cc1cccc(NC(=O)C2CCN(S(=O)(=O)c3cccc4cccnc34)CC2)n1	/	/	-1.8	i

No.	HSV replic up primary fold	PKD1 inh	RGS16-Gao HTS
9	0.92	17.6	90.0
10	0.86	-7.4	104.0
11	1.2	-15.5	116.7
12	1.04	1.0	82.5
13	0.96	-5.1	101.7
14	0.99	-0.6	104.1
15	0.9	-4.0	92.7
16	1.03	-2.7	100.1
17	1.07	-3.9	101.7
18	1.09	1.6	104.5
19	1.07	2.1	103.5
20	1	0.7	110.1
21	0.82	0.3	102.6
22	0.9	-8.9	97.2
23	0.98	/	102.5
24	0.97	-12.4	102.1

(list continues)
No.	molecule	INS promoter inh	INS promoter inh cell count	GALR2 agonist	HSV replic up
25	COC(=O)c1sccc1NC(=O)CSCC(=O)O	9.1	90.0	/	i
26	Cc1sc(NC(=O)c2ccccc2)c(C(c2ccccn2)N2CCN(CCO)CC2)c1C (configuration not stated)	32.3	122.6	-1.4	i
27	O=c1c2c(nc3cc(-c4cccc(F)c4)[nH]n13)CCC2	/	/	/	i
28	Cc1ccc(NC(=O)c2cccs2)cc1[N+](=O)[O-]	/	/	/	i
29	O=C(NCc1ccc(F)cc1)c1ccc[nH]1	/	/	/	i
30	COC(=O)c1cnn(C(=O)c2ccccc2Br)c1N	27.8	96.5	-3.1	i
31	CC(C)(C)NC(=O)c1cc(-c2ccccc2)n[nH]1	/	/	/	i
32	COc1ccc(CN(C)c2ncnc(N)n2)cc1	40.0	121.0	-1.1	i
33	CC(C)NC(=O)c1onc(CSc2cccc(F)c2)c1C(=O)O	29.7	66.7	-1.2	i
34	CCc1cccc(C)c1NC(=O)COC(=O)c1ccc2c(c1)S(=O)(=O)c1ccccc1C2=O	7.1	94.0	-1.6	i
35	CCCCCCC(=O)N=Nc1c(O)[nH]c2ccc([N+](=O)[O-])cc12	14.8	100.9	-0.5	i
36	COc1ccc(N2CCN(Cc3cc(=O)oc4ccc5ccccc5c34)CC2)cc1	50.0	63.8	-0.9	i

No.	HSV replic up primary fold	PKD1 inh	RGS16-Gao HTS
25	0.95	3.0	72.9
26	1.03	8.3	88.8
27	0.94	-6.9	95.4
28	1.01	-1.0	100.6
29	0.99	7.2	101.4
30	0.93	-1.5	99.9
31	0.99	-2.5	110.8
32	1	-2.8	75.0
33	0.69	-7.3	105.3
34	1.01	-0.7	171.6
35	0.89	-11.3	45.0
36	1.01	-1.0	102.4

Next compounds.
No.	molecule	INS promoter inh	INS promoter inh cell count	GALR2 agonist	HSV replic up
37	O=C(/C=C/c1ccc([N+](=O)[O-])cc1)NNC(=O)C1CC1	/	/	/	i
38	CCOC(=O)CNS(=O)(=O)c1cc(-c2nn(C)c(=O)c3ccccc23)ccc1C	/	/	1.3	i
39	Cc1ccc2oc(-c3cccc(NC(=S)NC(=O)/C=C/c4ccco4)c3)nc2c1	/	/	-3.7	i
40	CCOC(=O)c1cc(C#N)c(SCc2ccc(C#N)cc2)nc1C	44.4	50.1	-0.2	i
41	COc1ccc(C(=O)c2ccc(OC)c3cccc(O)c23)cc1OC	-10.0	123.4	-0.9	i
42	COc1ccc(CC(=O)NCCN2CCCC2)cc1	25.0	82.8	-1.1	i
43	CCCC1CCC(C2=N/C(=C\c3ccc(OC)c(OC)c3)C(=O)O2)CC1 (configuration not stated)	40.0	108.1	-2.2	i
44	COc1cc(/C=C(\C#N)c2nc3c(s2)CCCC3)ccc1O	-118.2	99.3	-0.1	i
45	CCCCC1=CC2=CC(=O)C(C)(OC(=O)CC)C(=O)C2=CN1CCN1CCOCC1 (configuration not stated)	/	/	/	i
46	CCOC(=O)c1c(NC(=O)COc2ncnc3ccccc23)sc(C)c1CC	/	/	-0.8	i
47	CCc1ccc(OCCNC(=O)c2ccc(S(=O)(=O)N(C)C)cc2)cc1	25.0	145.2	-0.7	i
48	Cc1cc(C)nc(-n2ncc3c2CC(c2ccccc2C)CC3=O)n1 (configuration not stated)	6.1	90.8	0.2	i

No.	HSV replic up primary fold	PKD1 inh	RGS16-Gao HTS
37	0.87	-2.7	97.5
38	0.97	5.8	97.5
39	1.05	-10.8	100.5
40	1.02	-3.6	101.5
41	0.98	-5.7	101.0
42	0.993	1.1	103.1
43	0.94	-6.9	102.3
44	1.2	-5.8	93.0
45	1.06	/	101.9
46	1.09	-0.5	106.1
47	1.49	-6.7	95.8
48	0.86	3.7	61.6

Single entries from the results shown.
For RGS16-Gao HTS, no. 40 has 101.5
For RGS16-Gao HTS, no. 42 has 103.1
For INS promoter inh cell count, no. 44 has 99.3
For HSV replic up primary fold, no. 37 has 0.87
For RGS16-Gao HTS, no. 45 has 101.9

Other structures
No.	molecule	INS promoter inh	INS promoter inh cell count	GALR2 agonist	HSV replic up
49	COC(=O)C(C)NC(=O)C1CCCN1S(=O)(=O)c1cc(C)c(Cl)cc1C (configuration not stated)	-75.0	108.7	-1.1	i
50	O=C(C1CCN(C2CCN(C/C(Cl)=C/c3ccccc3)CC2)CC1)N1CCOCC1	/	/	/	i
51	COc1ccc(CN(CC2CCC(C(=O)O)CC2)C(=S)Nc2cc(C)ccc2C)cc1 (configuration not stated)	/	/	/	i
52	COc1cccc(CNC(=O)CCC2CCCN(C(=O)C3CCOCC3)C2)c1 (configuration not stated)	/	/	/	i
53	Cc1ccc(NCC(=O)N/N=C/c2c[nH]c3ccccc23)cc1	-25.0	71.0	/	i
54	O=C(CSc1nnc(-c2ccc(F)cc2)o1)Nc1ccc(S(=O)(=O)N2CCCC2)cc1	18.2	133.3	-0.5	i
55	Cc1cccc(NS(=O)(=O)c2cc([N+](=O)[O-])ccc2C)n1	/	/	/	i
56	CCOC(=O)C(=O)Nc1ccc(S(=O)(=O)Nc2ncccn2)cc1	/	/	-2.8	i
57	COc1ccc(OC)c(C2CC(=O)Nc3n[nH]c(-c4ccccc4)c32)c1 (configuration not stated)	/	/	/	i
58	CCCCCCCCCCCCCCCC(=O)NCCc1c[nH]c2ccccc12	/	/	/	/
59	Cc1cccc(NC(=O)CCC(=O)N/N=C/c2ccco2)c1	-12.5	147.7	0.7	i
60	CCSc1nnc(NC(=O)Cc2ccc(OC)c(OC)c2)s1	11.4	98.6	-1.3	i

No.	HSV replic up primary fold	PKD1 inh	RGS16-Gao HTS
49	1.01	-3.7	67.2
50	1.03	-1.8	106.2
51	0.92	-4.6	100.0
52	1.29	-0.9	96.3
53	0.95	3.5	59.8
54	0.97	-9.6	108.1
55	1.06	-5.4	102.6
56	0.96	-3.8	84.5
57	0.83	-2.6	106.3
58	/	-8.7	99.2
59	1.05	7.8	104.8
60	0.98	-6.9	109.5

Further records follow:
No.	molecule	INS promoter inh	INS promoter inh cell count	GALR2 agonist	HSV replic up
61	CCOC(=O)c1c(/N=C/N(C)C)sc(/C=N/Nc2ccccc2)c1-c1ccccc1Cl	/	/	-0.8	i
62	O=C(N/N=C/c1ccc(Sc2nc3ccccc3[nH]2)o1)c1ccncc1	/	/	-0.8	i
63	N#CC(c1ccc(F)cc1)c1ccc(C(=O)c2ccccc2)cc1 (configuration not stated)	-9.4	76.4	-1.2	i
64	COc1cccc(OCCCCCCN2CCOCC2)c1	-31.0	87.8	-0.1	i
65	NNc1nc(C(F)(F)F)nc2ccccc12	/	/	/	i
66	CCOc1ccc(N2C(=O)C3=C(C(c4ccc(Cl)cc4)=NCCN3)C2c2cccnc2)cc1 (configuration not stated)	/	/	/	i
67	CS(=O)(=O)c1ccccc1-c1nc(-c2ccc([N+](=O)[O-])cc2)no1	25.0	119.5	/	i
68	Cc1ccc(-c2nnnn2-c2ccc(C)cc2)cc1	/	/	/	i

No.	HSV replic up primary fold	PKD1 inh	RGS16-Gao HTS
61	1.04	9.5	101.4
62	0.85	-7.5	107.3
63	0.8	-5.8	99.9
64	0.99	0.6	102.6
65	1.12	4.7	108.2
66	0.81	-4.1	98.9
67	0.93	5.5	103.9
68	0.94	0.5	100.0
